From PubChem
VACV Venus inh – inhibitors of vaccinia virus (Venus reporter); Vaccinia virus Venus reporter expression, fluorescence; Potency, µM (doses to about 36.5 µM), for inactives: at the top dose activity change, negative = inhibition, most hits filed as inhibitors; 330,000 compounds, 0.46% hits; active means well fitted inhibition curve with a large enough effect; inconclusive means small, poorly fitted or top-dose-only effect; inactive means no such curve, though single readings can be large or run the other way; tested in A549 cells; further: nearly all actives have a fitted effect of over 30% in size; inactives centre near -10
VACV mCherry inh – vaccinia inhibition (mCherry reporter); 310,000 compounds, 0.63% hits; AID 720579; Potency, µM (top dose mostly 36.5 µM), for the others: at the top dose activity change, negative = inhibition, usual class: inhibitors; Vaccinia virus mCherry reporter infection, fluorescence; about a quarter of the inactives have no number; active = well fitted inhibition curve with a large enough effect; inconclusive = small, poorly fitted or top-dose-only effect; inactive = no such curve, though single readings can be large or run the other way; tested in A549 cells; further: nearly all actives have a fitted effect of over 35% in size; inactives centre near -10
Active calls of the source: *; i = inactive; ? = inconclusive; · = no result given; [ ] = another dose, or the depositor's remark. On the % scale 0 is the no-effect control and ±100 the full control effect; potency means the concentration at half of the fitted maximal effect.

SMILES	VACV Venus inh	VACV mCherry inh
O=C(c1ccc(F)cc1)N1CCC(C(=O)N2CCCc3ccccc32)CC1	-14.5%	i
CN(c1ccccc1)S(=O)(=O)c1ccc(Cl)c(C(=O)NCCc2c[nH]c3ccccc23)c1	-21.9%	-27.1%
CCOc1ccc(CC(=O)Nc2c3c(nn2C(C)(C)C)CS(=O)(=O)C3)cc1	-2.7%	-13.0%
Cc1ccc(Cl)cc1NC(=O)c1oc2c(c1C)-c1[nH]ncc1CC2	-1.7%	-3.2%
CC(=O)NCCNc1nc2cc(-c3ccc(Cl)cc3C)sc2c(=O)n1C	-29.1%	-2.0%
CCCCCCCC(=O)NC(Oc1ccccc1[N+](=O)[O-])C(Cl)(Cl)Cl (stereo not drawn)	?	-13.2%
CCC(=O)Nc1c(S(=O)(=O)c2ccccc2)c2nc3ccccc3nc2n1C(C)c1ccccc1 (stereo not drawn)	-22.7%	-10.9%
CC(=O)Nc1nc(=O)c2ccccc2s1	-5.3%	-20.7%
Cc1ccc(N2CC(NC(=O)CCc3ccccc3)CC2=O)cc1C (stereo not drawn)	-4.2%[7.34 µM]	-1.1%[7.34 µM]
CCCNC(=O)Nc1ccc2c(c1)nc(C)n2C	-11.0%	-13.8%
O=C(CCc1ccccc1)NC(=S)Nc1cccc(Br)c1	-10.0%	-2.9%
CC(C)CC1NC(=O)N(CC(=O)N2CCN(S(=O)(=O)c3ccccc3)CC2)C1=O (stereo not drawn)	-9.9%	i
O=C(NCC1COc2ccccc2O1)c1cccc(S(=O)(=O)N2CCOCC2)c1 (stereo not drawn)	-4.0%	-17.1%
Cc1[nH]c(=O)[nH]c(=O)c1NC(=O)c1ccccc1[N+](=O)[O-]	0.1%	-5.7%
CCCc1[nH]nc2c1C(c1cccnc1)C(C#N)=C(N)O2 (stereo not drawn)	-7.5%	·
COC(=O)N1CCCc2cc(S(=O)(=O)N3CCN(c4ccccc4)CC3)ccc21	2.5%	-4.3%
CCN(CC)CCCNC(=O)c1nn(C)c2c1CSc1ccccc1-2	-5.5%	-4.5%
COc1ccc2c(c1)CCc1c(C(=O)Nc3c(C)nn(Cc4ccccc4Cl)c3C)noc1-2	-24.9%	-1.9%
NC(Cc1ccc(C(F)(F)F)cc1)c1csc(Nc2ccc(C(=O)NCc3ccco3)cn2)n1 (stereo not drawn)	-22.7%	-27.7%
Cc1ccc(OCC(=O)Nc2ccc(O)c(-c3nc4ccccc4o3)c2)cc1	?	-19.2%
O=C(CNC(=O)OCc1ccccc1)NC1CCCCCC1	-7.3%	i
CC(C)Cn1c(-c2ccc(Cl)cc2)cnc1SCC(=O)N1CCOCC1	-20.1%	i
CC(C)CCN1NC2(CCCC(C)C2)NC1=S (stereo not drawn)	2.9%	-5.3%
c1ccc(CC2CCN(c3ncnc4sccc34)CC2)cc1	-15.7%	-6.7%
COc1ccccc1C(=O)Nc1ccc(C(=O)OCc2cc(=O)n3nc(C)sc3n2)cc1	?	?
CC1Cc2ccccc2N1C(=S)NC(=O)c1ccc(Cl)cc1Cl (stereo not drawn)	-18.7%	-9.1%
CS(=O)(=O)N1CCC(C(=O)Nc2cc(Cl)c(Cl)cc2Cl)CC1	-4.0%	i
CCOC(=O)c1ccc(NC(=O)C2(c3ccc(OC)cc3)CCCC2)cc1	-19.9%	·
Nc1nc(C2CC2)c(Sc2sc(N)nc2C2CC2)s1	?	·
CCC(Oc1ccccc1)C(=O)N1CCN(CC)CC1 (stereo not drawn)	1.8%	-8.5%
CC1O[C@@H](OC2C(O)C(C)O[C@H](OC(=O)[C@]34CCC(C)(C)C[C@H]3C3=CCC5[C@@]6(C)CC(O)C(O[C@@H]7OC(CO)C(O)[C@@H](O)[C@@H]7O)[C@@](C)(C(=O)O)C6CC[C@@]5(C)[C@]3(CO)CC4)C2O[C@H]2OC(C)[C@@H](O[C@@H]3OCC(O[C@@H]4OC(CO)C(O)[C@H](O)C4O)[C@@H](O)[C@@H]3O)[C@H](O)C2O)C(O)C(O)C1O (stereo partly drawn)	-2.3%	i
COc1ccccc1NC(=O)c1ncoc1-c1ccco1	8.6%	5.2%
O=C(c1ccc2c(c1)N(Cc1ccc(Cl)cc1)C(=O)c1ccccc1S2=O)N1CCOCC1 (stereo not drawn)	-10.4%	-10.2%
COc1ccc(C2CC(C(F)(F)F)n3ncc(C(=O)O)c3N2)cc1OC (stereo not drawn)	-9.9%	·
O=C(NCc1cccc(C(F)(F)F)c1)c1ccc2sc([C@@H]3O[C@H](CO)[C@@H](O)[C@H]3O)nc2c1	10.7%	-4.9%
Cc1ccc(-n2c(=S)[nH]c3nc4c(cc3c2=O)COC(C)(C)C4)cc1	-3.6%	i
Cc1c(N2C(=O)c3cccc4cccc(c34)C2=O)c(=O)n(-c2ccccc2)n1C	3.8%	·
COc1cccc(/C(C)=N/NC(=O)c2cc(-c3cccnc3)nc3ccccc23)c1	-8.1%	-3.7%
Cc1nn2cc(-c3ccccc3)nc2[nH]c1=O	-2.2%	-15.6%[1.46 µM]
COc1ccc(Cn2nnnc2C(c2ccccn2)N2CCN(c3cc(Cl)ccc3C)CC2)cc1 (stereo not drawn)	?	?
Cc1ccc(N2CCN(C(=O)Nc3cccc([N+](=O)[O-])c3)CC2C)cc1 (stereo not drawn)	-27.4%	-29.5%
N#Cc1ccc(C2=CC(=O)C[C@H](c3ccc4c(c3)OCO4)C2)cc1	-16.6%	-19.5%
C=CCCC1(C)C(=O)N(c2ccccc2)c2ccccc21 (stereo not drawn)	?	-29.9%
Cc1ccc(S(=O)(=O)n2ccnc2)cc1C	-4.8%	i
Cc1cnc(-n2ncc(C(=O)NC(C)(C)CO)c2-c2cccs2)nc1-c1ccc(F)cc1	-0.1%	-6.3%
Cc1ccccc1NC(=O)Cn1c(=O)n(-c2ccc(CC(=O)NCC3CCCO3)cc2)c(=O)c2ccccc21 (stereo not drawn)	8.1%	-0.2%
S=C(NCCOCCOCCNC(=S)Nc1ccccc1)Nc1ccccc1	3.9%	i
CCc1ccccc1NC(=O)c1cc2c(Cl)nc3ccccc3c2s1	-15.8%	-16.9%
Cc1ccc(NC(=O)C2COc3ccccc3O2)c(C)c1 (stereo not drawn)	-12.4%	-9.8%
OCCC1CN(CC2CCCCC2)CCN1CC1CCCCC1 (stereo not drawn)	-8.7%	i
COC(=O)c1cc(CNC(=O)c2cccc(F)c2)cc(NC(=O)c2ccccc2OC)c1	-1.3%	-4.8%
Cc1nc(N/N=C/c2cccc(F)c2)cc(N2CCOCC2)n1	-18.2%	?
CCn1c(C)c(C)c2cc(C(=O)NCc3cccc(C)c3)ccc21	-14.5%	-20.0%
CCc1ccccc1NC(=O)CCc1c(C)nn(-c2ccc(N3CCOCC3)nn2)c1C	-4.4%	-8.5%
COc1ccc(-n2nc(C(=O)NCC(=O)N3CCOCC3)c3ccccc3c2=O)c(OC)c1	-3.5%	-8.5%
CCN(CCCN(C)C)c1ccc(/C=C/c2ccnc3ccccc23)cc1	7.0%	-18.8%
Cn1c(=O)oc2cc(S(=O)(=O)Nc3cccc([N+](=O)[O-])c3)ccc21	-16.5%	i
CN(C(=O)c1ccco1)C1(c2ccccc2Cl)CCCCC1=O (stereo not drawn)	-13.2%	·
O=C(Nc1c(-c2ccccc2)[nH][nH]c1=O)c1cnccn1	-5.7%	-5.5%
COc1ccc(CCNC(=O)COc2ccc(N(C)S(=O)(=O)c3ccc(Cl)cc3)cc2)cc1	?	?

Among those listed so far, seven have fluorine:
SMILES	VACV Venus inh	VACV mCherry inh
O=C(c1ccc(F)cc1)N1CCC(C(=O)N2CCCc3ccccc32)CC1	-14.5%	i
NC(Cc1ccc(C(F)(F)F)cc1)c1csc(Nc2ccc(C(=O)NCc3ccco3)cn2)n1 (stereo not drawn)	-22.7%	-27.7%
COc1ccc(C2CC(C(F)(F)F)n3ncc(C(=O)O)c3N2)cc1OC (stereo not drawn)	-9.9%	·
O=C(NCc1cccc(C(F)(F)F)c1)c1ccc2sc([C@@H]3O[C@H](CO)[C@@H](O)[C@H]3O)nc2c1	10.7%	-4.9%
Cc1cnc(-n2ncc(C(=O)NC(C)(C)CO)c2-c2cccs2)nc1-c1ccc(F)cc1	-0.1%	-6.3%
COC(=O)c1cc(CNC(=O)c2cccc(F)c2)cc(NC(=O)c2ccccc2OC)c1	-1.3%	-4.8%
Cc1nc(N/N=C/c2cccc(F)c2)cc(N2CCOCC2)n1	-18.2%	?

(more compounds)
SMILES	VACV Venus inh	VACV mCherry inh
CCOC(=O)C1CCN(C(=O)C2CCN(c3nn4c(=O)cc(C)nc4s3)CC2)CC1	-1.1%[7.34 µM]	-3.3%[7.34 µM]
O=S(=O)(c1ccc(S(=O)(=O)N2CCCC2)cc1)N1CCCCCC1	-1.2%	-3.9%
Cc1ccc(S(=O)(=O)N2CCN(C(=O)COC(=O)/C=C/c3ccccc3[N+](=O)[O-])CC2)c(C)c1	-11.8%	-7.1%
COc1cccc(/C=C2/SC(=S)N(CC(=O)NNC(=O)c3ccccc3OC)C2=O)c1	20.1%	10.8%
COc1ccc(/C=C/C(=O)Nc2cc(-c3nc4ccccc4o3)ccc2OC)cc1	-12.5%	-13.3%
N#Cc1ccc(C(C(=O)NC2CCCCC2)n2c(=O)c(-c3cc4ccccc4[nH]3)nc3ccccc32)cc1 (stereo not drawn)	-26.1%	i
CCOc1ccc(S(=O)(=O)N(CC(=O)NCCSCc2ccc(C)cc2)c2ccccc2)cc1	-13.0%	-3.8%
O=c1c2ccccc2nc(-c2cccs2)n1-c1ccccc1	-10.0%	·
COc1cccc(NC(=O)CN(c2ccc3c(c2)OCO3)S(C)(=O)=O)c1	0.2%	-17.4%
CCOC(=O)Cc1cnc(NC(=O)Cn2nnc(-c3ccc(OCC)cc3)n2)s1	-13.4%	i
Cc1ccccc1Nc1nnc(-c2ccc(C)c(S(=O)(=O)NCC3CCCO3)c2)c2ccccc12 (stereo not drawn)	-3.1%	-16.1%
CC(C)(C)OC(=O)N1CCCC(C(=O)Nc2cccc(C(=O)NCCCCc3ccccc3)c2)C1 (stereo not drawn)	?	i
C=C(C)CN(CC)C(=O)CCc1nnc(CCc2c[nH]c3ccccc23)o1	-8.7%	-20.6%
CCOc1ccc(C(=O)CN2CCN(S(=O)(=O)c3ccc(Br)cc3)CC2)cc1	-5.3%	i
CCc1ccccc1-n1nnnc1-c1cnccc1C(F)(F)F	-13.7%	i
Cc1ccc(S(=O)(=O)N2C(c3ccc(Cl)c(Cl)c3)CC=C(C(=O)O)C2c2cccc(Cl)c2)cc1 (stereo not drawn)	?	?
CCOc1ccc(NC(=O)CCC(=O)N2CC(C)Oc3ccc(C)cc32)cc1 (stereo not drawn)	-11.9%	-12.1%
Clc1ccccc1/C=C/c1nc(-c2ccccn2)no1	-12.0%	i
O=C(O)c1sc(Nc2ccccc2)nc1-c1ccccc1	-0.7%	-6.6%
C[C@H](CO)N1C[C@H](C)[C@H](CN(C)C(=O)Nc2ccc3c(c2)OCO3)Oc2ncc(Br)cc2C1=O	-9.3%	-13.7%
Cc1ccc(Cl)c(NC(=O)COC(=O)CNS(=O)(=O)/C=C/c2ccccc2)c1Cl	-13.0%	-12.9%
O=C(N/C(=C\c1ccco1)C(=O)N1CCC(O)CC1)c1ccccc1	-8.2%	1.0%
CCn1c(=O)cc(OCC(=O)NCCc2cccc(C)c2)c2ccccc21	1.6%	i
CCc1cc2c(COC(=O)c3cccc(S(C)(=O)=O)c3)cc(=O)oc2cc1O	-8.7%	i
CCOc1cc(/C=N/O)ccc1OCc1ccc(C)cc1	-27.7%	-12.7%
COCCNC(=O)c1cnn2c(C(F)(F)F)cc(-c3ccc(C)cc3)nc12	-12.4%	-1.7%
O=C(O)C1C2CCC(O2)C1C(=O)Nc1ccc(Cl)cc1 (stereo not drawn)	-18.2%	i
COc1cc(NC(=O)c2cc3nc(-c4ccccc4)cc(-c4ccccc4)n3n2)c(OC)cc1Cl	-2.0%	-2.2%
CCOC(=O)CCCNS(=O)(=O)c1c(C)ccc2nsnc12	-9.0%	-11.6%
Cc1cc(C)cc(NC(=O)Cn2c(-c3cncs3)nc3ccccc32)c1	11.0%	3.2%
CC(C)C(=O)Nc1ccc(C(=O)NN2C(=O)c3ccccc3C2=O)cc1	-15.6%	i
CCCCc1nc2sc3c(=O)[nH]c(=S)[nH]c3c2c2c1CCC2	3.5%	-13.4%
O=C1C(Cl)=C(NCc2cccnc2)C(=O)c2ccccc21	28.2µM*	?
Cc1ccc(S(=O)(=O)N(c2ccccc2)C2CCS(=O)(=O)C2)cc1 (stereo not drawn)	-19.5%	·
Cn1cnc([N+](=O)[O-])c1Oc1ccccc1	?	28.2µM*
Cc1cccc(NC(=O)CN2C(=O)C3(SCC(=O)N3c3ccccc3)c3ccccc32)c1 (stereo not drawn)	-9.0%	-13.3%
Cc1ccc(S(=O)(=O)NP(=O)(Oc2ccccc2)Oc2ccccc2)cc1	-4.8%	-14.0%
CCN1C(=O)[C@@H]2C(C(=O)c3cnccn3)=NN[C@@H]2C1=O	-10.6%	-12.4%
Cc1nnsc1C(=O)NC1CCCc2c1cnn2-c1ccccc1F (stereo not drawn)	-15.4%	-2.7%
CC(C)CN(CC(C)C)C(=O)c1cccc(S(=O)(=O)N2CCc3ccccc32)c1	-7.5%	-16.6%
O=[N+]([O-])c1ccc(S(=O)(=O)N2CCn3cccc3C2c2ccc(Br)cc2)cc1 (stereo not drawn)	-14.2%	-18.6%
O=C1CC(C(=O)Nc2ccc(Cl)cc2)S/C(=N\N=C\c2ccco2)N1 (stereo not drawn)	?	-18.6%
COc1ccc(CC2(CO)CCN(S(=O)(=O)c3c(C)nn(C)c3C)CC2)cc1	-8.7%	-9.5%
O=C(Cn1cc(SCc2cccc(Cl)c2)c2ccccc21)N1CCCCC1	-13.9%	-14.6%
CC(=O)Nc1ccccc1OCC(=O)NCC(F)(F)F	-2.0%	i
